D2 agonist: Beta-Arrestin HTS for Positive Allosteric Modulators of the Human D2 Dopamine Receptor: Agonists; AID 624465, 2012; DiscoveRx PathHunter D2 beta-arrestin, luminescence, 90 min; 100% = 57 uM dopamine signal; D(2) dopamine receptor (Homo sapiens), P14416; 360,000 tested, 0.084% active; activation, % (test concentration not listed); in the data active = activation above about 40%; inconclusive = about 15% to 40%; inactive = below about 15%; also: compound concentration not given in the record; the text of the record calls up to 30% inactive
Target sequence (P14416 whole entry, looked up): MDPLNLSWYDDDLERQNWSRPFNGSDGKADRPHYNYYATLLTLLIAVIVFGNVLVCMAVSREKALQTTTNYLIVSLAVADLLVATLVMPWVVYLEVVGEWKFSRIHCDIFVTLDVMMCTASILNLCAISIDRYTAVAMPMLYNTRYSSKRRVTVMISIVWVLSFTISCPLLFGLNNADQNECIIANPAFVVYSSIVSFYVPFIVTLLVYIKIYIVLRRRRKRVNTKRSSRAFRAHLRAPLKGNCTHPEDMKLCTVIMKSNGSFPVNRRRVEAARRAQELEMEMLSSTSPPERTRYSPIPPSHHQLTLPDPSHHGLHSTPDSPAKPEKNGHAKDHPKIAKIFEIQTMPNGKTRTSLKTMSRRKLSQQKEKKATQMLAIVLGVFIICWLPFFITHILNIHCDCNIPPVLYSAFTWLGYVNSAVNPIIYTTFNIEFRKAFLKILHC
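Agonist mode: compounds alone added to overnight-plated D2 PathHunter cells for 90 min at 37 C, with 57 uM final dopamine (EC100) defining full response. Beta-arrestin recruitment detected by chemiluminescent reagent, read after 1 h at ambient temperature.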
PINK1 expr mod: A Quantitative High throughput Screen to Identify Chemical Modulators of PINK1 Expression | 410,000 tested, 0.2% active | Potency, µM (doses to about 76.6 µM), without a hit: top-dose activation (PINK1 increase), hits mostly activators | PINK1 immunofluorescence, high-content cytometry, 24 h; active = well fitted activation curve with a large enough effect; inconclusive = small, poorly fitted or top-dose-only effect; inactive = flat fitted curve, though single readings scatter; cell line not stated here;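 also: potency is read from the fitted curve at half-maximal effect; % of control where 0% means no effect; nearly all actives have a fitted effect of over 65% in size; a mitochondrial uncoupler was the plate control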
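A stable cell line was treated with compounds at 5 concentrations for 24 hours, with CCCP as control. PINK1 levels and mitochondrial localization were measured by immunofluorescence with mitochondrial, cell and nuclear markers after fixation, read by laser-scanning cytometry.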
D2 PAM: Beta-Arrestin HTS for Positive Allosteric Modulators of the Human D2 Dopamine Receptor: Potentiators; D(2) dopamine receptor (Homo sapiens), P14416; DiscoveRx D2 beta-arrestin cells, luminescence, 90 min; 100% = 57 uM dopamine signal; potentiation, % (test concentration not listed); 360,000 tested, 0.23% active; AID 624464, 2012; active = potentiation of 50% or more; inconclusive = 30% to 50%; inactive = 30% or less;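 also: compound concentration not given in the record; tested on top of an EC20 dose of dopamine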
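PathHunter D2 cells, attached overnight at 37 deg C, received compound in DMSO plus dopamine at EC20 (50 nM final) for 90 min at 37 deg C. Beta-arrestin recruitment was read as luminescence after 1 h with detection reagent at ambient temperature.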
TRPML1 inh: qHTS for Inhibitors of the Human Mucolipin Transient Receptor Potential 1 (TRPML1); TRPML1-inducible cells, Ca2+ dye fluorescence, FDSS; hits give low values; inhibition of EC80 agonist-evoked calcium signal; Mucolipin-1 (Homo sapiens), Q9GZU1; 390,000 tested, 0.02% active; activity change, negative = inhibition, % (no concentration beside the values); in the data active means activity change below about -50%; inconclusive means about -30% to -50%; inactive means above about -30%;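 also: stimulus is agonist 54-4 at its EC80 concentration; % is scaled to controls: 0 for no effect and ±100 for the full control effect; compound concentration not given in the record; the text of the record puts the active cut at -80%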
Target sequence (Q9GZU1 whole entry, looked up): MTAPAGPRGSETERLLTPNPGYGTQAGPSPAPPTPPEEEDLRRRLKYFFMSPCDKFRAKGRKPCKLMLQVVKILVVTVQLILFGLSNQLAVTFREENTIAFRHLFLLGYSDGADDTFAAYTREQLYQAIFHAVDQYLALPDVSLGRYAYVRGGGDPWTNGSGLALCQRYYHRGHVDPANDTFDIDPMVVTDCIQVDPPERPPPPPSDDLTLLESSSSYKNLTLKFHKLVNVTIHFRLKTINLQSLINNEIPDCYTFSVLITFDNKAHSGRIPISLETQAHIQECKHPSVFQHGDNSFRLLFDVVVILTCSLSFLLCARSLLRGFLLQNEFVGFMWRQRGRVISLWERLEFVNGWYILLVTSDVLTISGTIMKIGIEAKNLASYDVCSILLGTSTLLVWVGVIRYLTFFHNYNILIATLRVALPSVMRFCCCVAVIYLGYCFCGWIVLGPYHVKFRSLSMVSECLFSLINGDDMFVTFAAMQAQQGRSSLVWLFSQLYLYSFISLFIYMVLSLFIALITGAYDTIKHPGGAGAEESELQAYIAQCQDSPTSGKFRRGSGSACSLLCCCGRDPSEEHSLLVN
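Calcium fluorescence in TRPML1-DL cells induced overnight with Tet: a 110 s read after compound pin addition, then a 110 s antagonist read after challenge with 54-4 at 4 uM final (EC80).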
TRPML1 agonist: qHTS for Agonists of the Human Mucolipin Transient Receptor Potential 1 (TRPML1); Mucolipin-1 (Homo sapiens), Q9GZU1; TRPML1-expressing cells, Ca2+ dye fluorescence, FDSS; host cell line not named in the record; reference of the full effect not given here; 410,000 tested, 0.12% active; activation, % (concentration not given with the values); in the data active = activation above about 50%; inconclusive = about 30% to 50%; inactive = below about 30%; also: 0% is about no effect; the text of the record puts the active cut at 80%
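Tetracycline-induced TRPML1-DL cells are seeded and incubated overnight before loading with a no-wash Ca2+ dye and quencher. Agonist activity is taken from the 110 s fluorescence read following compound pin-transfer on an FDSS, before EC80 54-4 challenge.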
Six1-Eya2 blk: qHTS Assay for Inhibitors of the Six1/Eya2 Interaction; activity change, % (test concentration not listed); AlphaScreen GST-Six1/His-Eya2 binding, biochemical; hits give low values; control for the full effect not named in the record; 360,000 tested, 0.56% active; Homeobox protein SIX1 (Homo sapiens) + Protein phosphatase EYA2 (Homo sapiens), …; in the data active = activity change below about -65%; inconclusive = about -30% to -65%; inactive = above about -30%; also: % is scaled to controls: 0 for no effect and ±100 for the full control effect; compound concentration not given in the record
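Six1/Eya2 binding was read as AlphaScreen signal after compounds were pinned into GST-Six1 plus His-tagged Eya2 (5X stock 250/500 nM) in pH 8.0 Tris/NaCl/TCEP buffer, beads added, then incubated 1 h, 37 C, dark.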
* hit, by the source's call; ? = inconclusive; / = no result given; & = joins results of further samples; [ ] = remark or other dose. This is a random part of the collection; about 1% have a hit in one of these screens.

canonical_smiles	D2 agonist	PINK1 expr mod	D2 PAM	TRPML1 inh	TRPML1 agonist	Six1-Eya2 blk
COc1ccc(OC)c(S(=O)(=O)N2CCC(C(=O)NCc3ccncc3)CC2)c1	0.2	1.6%	-2	0	0.0	7
CCOC(=O)Nc1cc2c(C)cc(=O)oc2cc1C	-3.0	-1.0%	-11	9	1.2	-3
COc1cc(NC(=O)CSc2nnnn2-c2ccccc2)cc(OC)c1OC	-1.0	1.0%	-10	2	-0.7	-5
O=C(/C=C/c1ccc(O)c(O)c1)O[C@@H]1C[C@](O)(C(=O)O)C[C@@H](O)[C@H]1O	-0.9&-3.0	-0.1%&1.5%	-4&-5	2&15	0.7&0.1	6&3
CCOC(=O)c1ccc(N2C(=O)CC(SCC(N)C(=O)OCC)C2=O)cc1 (configuration not stated)	-0.7	1.1%	-6	-12	1.0	0
Nn1c(SCC(=O)N2CCN(S(=O)(=O)c3ccc(Cl)cc3)CC2)nnc1-c1cccs1	-6.3	-1.3%	-4	-22	1.2	2
CN(c1ccccc1)S(=O)(=O)c1ccc(NC(=O)C2CC2)cc1	0.5	0.1%	-5	11	0.8	-1
Cc1ccc(C(=O)N/C(=C\c2ccco2)C(=O)NCCCn2ccnc2)cc1C	-3.8	-0.9%[38.3 µM]	-11	-10	-0.1	-81*
C=CCNC(=O)c1ccc2nc(-c3ccccc3)c(-c3ccccc3)nc2c1	-2.4	-3.7%	-4	-1	6.5	-4
COc1ccc2[nH]c3c(c2c1)CCN1C(=O)C(CC(=O)NCc2ccc(OC)c(OC)c2)C[C@H](C(=O)N2CCOCC2)[C@@]31CCC1CCCC1 (some centres not stated)	-2.4	4.3%	-2	27	-0.8	-7
CCN(CC)CCn1c2c(c(SCC(=O)Nc3nc(C)cs3)nc1=O)CCCC2	-7.6	-0.3%	-13	-13	0.0	-13
CCCN(CC(=O)Nc1ccccc1OC)C(=O)CC1CCCC1	?	-0.2%	-4	1	0.0	5
Cc1ccc(-n2c(N)cc(=O)nc2SCC(=O)NC2CCCCC2)cc1C	-2.9	2.3%	0	-4	0.1	2
COc1ccc([C@H]2CC(=O)C=C(c3ccc(F)cc3OCc3ccccc3)C2)cc1OC	0.5	-0.7%	7	44	2.1	-16
CCOC(=O)c1cc2c(=O)n3ccccc3nc2n(CC2CCCO2)c1=NC(=O)c1ccc(OCC)cc1 (configuration not stated)	/	1.3%	/	8	0.7	/
C[C@@H](C(=O)NCCCCCC(=O)O)n1nnc2ccccc2c1=O	-0.3	5.4%	1	13	1.0	0
COc1ccc(C(C)=O)cc1CSc1nc(NCc2ccc(Cl)cc2)c2ccccc2n1	/	-0.3%	/	-24	1.1	/
COc1ccc(Nc2nc(-c3cccs3)cs2)cc1	-2.3	-0.7%	-7	-5	-0.7	-7
CCOC(=O)C1CCN(C(=O)CCS(=O)(=O)c2ccc3c(c2)CC(C)N3C(=O)CC)CC1 (configuration not stated)	3.3	-1.0%	-4	5	1.5	3
O=C(Nc1nnc(C2=COCCO2)o1)c1ccc(Cc2ccccc2)cc1	-4.0	1.0%	-23	-14	-0.3	?
Cc1ccc(F)cc1NC(=O)CN1C(=O)NC(C)(c2ccc3c(c2)OCCO3)C1=O (configuration not stated)	0.8	2.3%	-3	-4	5.0	-1
CC(=O)N(C)c1cccc([N+](=O)[O-])c1	2.7	2.0%	11	-10	0.3	5
CCOc1ccc(NC(=O)CN(C)C(=O)CCNC(=O)c2ccccc2Cl)cc1OCC	-1.9	0.4%	10	31	0.1	-14
c1ccc(Nc2ncnc3[nH]ncc23)cc1	1.8	-1.0%	-2	-5	0.3	2
COc1cc(-c2c(C(C)=O)c(C)nc3c2C(=O)c2ccccc2-3)cc(OC)c1OC	-2.5	5.2%	1	19	1.0	-3
COc1cc(OC)c(OC)cc1/C=C1\SC(N2CCCCC2)=NC1=O	-7.0	1.0%	-32	-19	0.7	-8
Cc1ccc(NC(=S)N2CCC(NC(=O)c3ccc(C)cc3)CC2)cc1	-1.6	1.7%	-12	9	0.0	-1
O=C1CC(c2ccccc2)Sc2nc(-c3ccc(F)cc3)nn21 (configuration not stated)	/	3.3%	/	-7	-0.8	/
CS(=O)(=O)N1CCN(c2ccc(NC(=O)Cc3ccccc3)cc2)CC1	0.8	/	7	-13	0.4	-1
Cc1cc(N)c(C)c([N+](=O)[O-])c1C	-13	-0.5%	-5	11	-0.8	-19
COCCn1c(=S)[nH]c2cc(OC)c(OC)cc2c1=O	-3.3	/	-3	20	0.1	-9
Cc1ccc(C(=O)n2c(N)nc3ccccc32)cc1	-3.3	4.8%	-7	2	-0.7	1
CC1(C)CC(=O)c2cc(C(=O)NC3CCSC3=O)c(=O)n(-c3ccc(Cl)cc3)c2C1 (configuration not stated)	-1.1	0.6%	-2	8	0.2	16
COC(=O)c1c(-c2ccc(Br)cc2)noc1N	-2.6	0.3%	-8	28	3.1	2
COC(=O)c1cc(NC(=O)CN2CCC(C(N)=O)(N3CCCCC3)CC2)cc(C(=O)OC)c1	-1.5	1.9%[38.3 µM]	-6	-3	0.9	-18
Cc1ccc(NC(=O)Cn2cnc3c(OCc4ccccc4)ncnc32)cc1C	-1.8	0.5%	-1	-14	-1.0	1
O=C(c1ccc(F)cc1)N1CCC(C(=O)N(Cc2ccccc2)c2ccccc2)CC1	-4.0	-0.6%	-4	2	-0.3	-1
CN(C)CCNc1ccc(CO)c2oc3ccc(O)cc3c(=O)c12	-1.8	-6.4%	-20	10	0.8	-24
Clc1ccc(Cl)c(OCCCCNCc2ccccc2)c1	-6.1	2.1%	-27	0	0.6	11
O=c1[nH]cnc2onc(-c3ccc(F)cc3)c12	-3.2	-0.8%	-8	14	-1.7	3
Cc1ccc(N(CC2CO2)S(=O)(=O)c2ccccc2[N+](=O)[O-])cc1 (configuration not stated)	-1.8	4.3%	-5	-4	-0.8	-8
CSCC(C)N1CCC(CO)(CCc2ccccc2)CC1 (configuration not stated)	-0.6	1.0%	-5	7	-0.6	9
COC(=O)c1ccccc1Oc1cnc2ccccc2n1	1.4	2.8%	-3	36	-0.4	3
O=C(Cc1ccsc1)NCC(=O)Nc1ccccc1Br	-9.1	0.2%	-4	5	0.0	2
CC1(Cc2cccc(C(N)=O)c2)C(=O)Nc2c(Cl)cccc21 (configuration not stated)	-2.4	2.0%	-8	-5	-0.3	0
COc1cc(OC)c2c(-c3cccc(-c4ccoc4)c3)cc(=O)oc2c1	-0.3	3.7%	/	2	-0.7	-5
COc1ccc(F)cc1S(=O)(=O)NC1CC(C)(C)NC(C)(C)C1	-1.7	-1.6%	0	1	-0.1	9
COc1ccc(CN2CCNC(=O)C2CC(=O)NC2CCCCCCC2)cc1C (configuration not stated)	-1.4	0.0%	-5	13	-0.3	7
O=C(NNS(=O)(=O)c1ccc(Br)cc1)C1CCCCC1	2.6	-0.6%	-5	-1	1.1	0
CC(=O)N1C(c2ccccc2)CC(=O)OC1c1ccc2c(c1)OCO2 (configuration not stated)	-0.5	-2.2%	-2	3	0.7	1
O=C(Nc1ccc(Cl)cc1)c1ccc2snnc2c1	2.7	3.5%	-7	-4	-0.6	-3
CCN(Cc1ccccc1)C(=O)C1CCN(Cc2ccc(SC)cc2)CC1	3.8	-1.0%	-22	-4	0.4	7
O=C(COC(=O)c1cncc(Br)c1)Nc1ccc2c(c1)OCO2	1.4	3.1%	3	14	-0.2	-7
Cc1cc(=O)oc2cc(OCC(=O)N3CCOCC3)c(Cl)cc12	-2.6	-1.6%	-2	11	4.3	-1
COc1cccc(NC(=O)CCNC(=O)N2CC(=O)Nc3ccccc32)c1	-1.4	-0.6%	-18	-14	-0.2	1
CCOC(=O)N1CCN(C(=O)c2cnn3c(C(F)F)cc(-c4ccc(C)cc4)nc23)CC1	-1.8	1.0%	-15	-5	1.3	9
N#CC1=C(N)C(C#N)(C#N)[C@H](c2ccncc2)[C@H]2CN(C(=O)OCc3ccccc3)CC=C12	-5.6	2.9%[38.3 µM]	-10	-5	0.6	-4
Cc1ccc(-c2nn(-c3ccccc3)cc2C=O)o1	4.6	0.7%	0	6	1.7	-6
COc1cccc(CNS(=O)(=O)/C=C/c2ccc(OC)c(OC)c2)c1	0.3	0.2%	-2	-7	-0.5	8
COc1ccc2c(c1)c(=O)c(S(=O)(=O)c1ccccc1)cn2CC(=O)Nc1ccc(C)c(Cl)c1	/	-0.5%	/	45	-0.7	/

Continued:
canonical_smiles	D2 agonist	PINK1 expr mod	D2 PAM	TRPML1 inh	TRPML1 agonist	Six1-Eya2 blk
Cc1cc(C)n(CC(O)Cn2c(C)c(C)c3ccccc32)n1 (configuration not stated)	-0.2	5.0%	-7	-2	-0.9	-10
CC(C)(C)NC(=O)NC(=O)CN1CCN(c2ncc(C(F)(F)F)cc2Cl)CC1	-3.6	0.1%	-9	3	0.4	1
CC(C)C1C(=O)N(Cc2cn(Cc3ccco3)nn2)CCS(=O)(=O)N1Cc1ccc(-c2ccc(Cl)cc2)cc1 (configuration not stated)	1.9	-1.5%	-6	-6	4.1	-12
CC(C)c1ccc(NC(=O)c2ccc(F)c(S(=O)(=O)N3CCCC3)c2)cc1	/	-1.5%	/	-11	1.0	/
CCC(OC(=O)c1cc2sccc2n1C)C(=O)NCC1CCCO1 (configuration not stated)	0.2	1.8%[38.3 µM]	-13	2	-0.1	-1
O=c1c(Cl)c(N2CCN(S(=O)(=O)c3ccc(F)cc3)CC2)cnn1-c1cccc(Cl)c1	-0.9	-1.0%	-10	-3	-0.5	-4
CN(Cc1cccnc1)C(=O)CCCc1c[nH]c2ccccc12	-1.7	0.5%	-15	-8	0.0	-3

Pulled one by one from above, three records:
canonical_smiles	D2 agonist	PINK1 expr mod	D2 PAM	TRPML1 inh	TRPML1 agonist	Six1-Eya2 blk
CCOC(=O)C1CCN(C(=O)CCS(=O)(=O)c2ccc3c(c2)CC(C)N3C(=O)CC)CC1 (configuration not stated)	3.3	-1.0%	-4	5	1.5	3
CC(C)C1C(=O)N(Cc2cn(Cc3ccco3)nn2)CCS(=O)(=O)N1Cc1ccc(-c2ccc(Cl)cc2)cc1 (configuration not stated)	1.9	-1.5%	-6	-6	4.1	-12
CC(C)c1ccc(NC(=O)c2ccc(F)c(S(=O)(=O)N3CCCC3)c2)cc1	/	-1.5%	/	-11	1.0	/
